TRPML1 agonist – agonists of human TRPML1 channel | Q9GZU1 | TRPML1-expressing cells, Ca2+ dye fluorescence, FDSS; host cell line not named in the record; reference of the full effect not given here | activation, % (no concentration beside the values) | 410,000 compounds, 0.12% hits | AID 624414; in the data active = activation above about 50%; inconclusive = about 30% to 50%; inactive = below about 30%; also: 0% is about no effect; the text of the record puts the active cut at 80%
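In this qHTS format, compounds were pin-transferred onto Ca8-dye-loaded TRPML1-DL cells induced with Tet overnight, and intracellular Ca2+ fluorescence was recorded kinetically for 110 s after a 10 s baseline. A subsequent 4uM final 54-4 (EC80) addition followed by a second 110 s read served as the antagonist phase.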
D2 PAM – human D2 receptor positive allosteric modulation; 360,000 compounds, 0.23% hits; AID 624464; DiscoveRx D2 beta-arrestin cells, luminescence, 90 min; 100% = 57 uM dopamine signal; P14416; potentiation, % (no concentration beside the values); active = potentiation of 50% or more; inconclusive = 30% to 50%; inactive = 30% or less;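 also: compound concentration not given in the record; tested on top of an EC20 dose of dopamine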
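PathHunter D2 cells, attached overnight at 37 deg C, received compound in DMSO plus dopamine at EC20 (50 nM final) for 90 min at 37 deg C. Beta-arrestin recruitment was read as luminescence after 1 h with detection reagent at ambient temperature.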
D2 agonist – agonists of human D2 dopamine receptor (beta-arrestin); activation, % (concentration not given with the values); 360,000 compounds, 0.084% hits; DiscoveRx PathHunter D2 beta-arrestin, luminescence, 90 min; 100% = 57 uM dopamine signal; in the data active = activation above about 40%; inconclusive = about 15% to 40%; inactive = below about 15%; also: the text of the record calls up to 30% inactive
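Agonist mode: compounds alone added to overnight-plated D2 PathHunter cells for 90 min at 37 C, with 57 uM final dopamine (EC100) defining full response. Beta-arrestin recruitment detected by chemiluminescent reagent, read after 1 h at ambient temperature.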
PINK1 modulator – PINK1 expression modulation. PINK1 immunofluorescence, high-content cytometry, 24 h. Potency, µM (titrated, usually from 76.6 µM), without a hit: top-dose activation (PINK1 increase), actives largely listed as activators. 410,000 compounds, 0.2% hits; active = well fitted activation curve with a large enough effect; inconclusive = small, poorly fitted or top-dose-only effect; inactive = flat fitted curve, though single readings scatter; cell line not stated here;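 also: potency is read from the fitted curve at half-maximal effect; % of control where 0% means no effect; nearly all actives have a fitted effect of over 65% in size; a mitochondrial uncoupler was the plate control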
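Readout is PINK1 immunofluorescence, quantified alongside mitochondrial, cell and nuclear markers by laser-scanning microplate cytometry. Cells from a stable line were exposed to compound titrations (5 concentrations) for 24 hours, with CCCP controls.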
TRPML1 blocker – blocks the human TRPML1 channel | 390,000 compounds, 0.02% hits | AID 624415 | activity change, negative = inhibition, % (concentration not given with the values) | Q9GZU1 | TRPML1-inducible cells, Ca2+ dye fluorescence, FDSS; active compounds read low; inhibition of EC80 agonist-evoked calcium signal; in the data active means activity change below about -50%; inconclusive means about -30% to -50%; inactive means above about -30%;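 also: stimulus is agonist 54-4 at its EC80 concentration; % is scaled to controls: 0 for no effect and ±100 for the full control effect; the text of the record puts the active cut at -80%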
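Tet-induced TRPML1-DL cells loaded with Ca8 no-wash calcium dye were read kinetically on FDSS. Compound addition was followed by EC80 agonist 54-4 (4 uM final); inhibition was read over 110 s.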
Six1-Eya2 blk – blocks human Six1 binding to Eya2 | activity change, % (concentration not given with the values) | AlphaScreen GST-Six1/His-Eya2 binding, biochemical; active compounds read low; control for the full effect not named in the record | Q15475+O00167 | AID 651725 | 360,000 compounds, 0.56% hits; in the data active = activity change below about -65%; inconclusive = about -30% to -65%; inactive = above about -30%; also: % is scaled to controls: 0 for no effect and ±100 for the full control effect
Target sequence (O00167 whole entry, looked up): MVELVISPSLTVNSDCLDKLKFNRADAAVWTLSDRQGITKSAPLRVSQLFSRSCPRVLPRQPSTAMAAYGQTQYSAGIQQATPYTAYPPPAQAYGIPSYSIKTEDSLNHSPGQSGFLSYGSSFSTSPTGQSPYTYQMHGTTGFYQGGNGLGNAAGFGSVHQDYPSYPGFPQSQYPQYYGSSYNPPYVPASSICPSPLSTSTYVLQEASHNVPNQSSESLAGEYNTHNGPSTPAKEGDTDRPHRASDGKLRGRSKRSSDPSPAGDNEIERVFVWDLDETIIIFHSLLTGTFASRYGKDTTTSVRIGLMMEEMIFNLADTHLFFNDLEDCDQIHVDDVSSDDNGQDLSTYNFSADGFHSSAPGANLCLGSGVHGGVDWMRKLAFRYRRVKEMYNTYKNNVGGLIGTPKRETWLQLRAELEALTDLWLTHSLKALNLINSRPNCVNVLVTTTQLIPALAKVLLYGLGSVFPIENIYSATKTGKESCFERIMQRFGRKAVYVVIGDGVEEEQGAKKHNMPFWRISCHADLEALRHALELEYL
Target sequence (Q15475 whole entry, looked up): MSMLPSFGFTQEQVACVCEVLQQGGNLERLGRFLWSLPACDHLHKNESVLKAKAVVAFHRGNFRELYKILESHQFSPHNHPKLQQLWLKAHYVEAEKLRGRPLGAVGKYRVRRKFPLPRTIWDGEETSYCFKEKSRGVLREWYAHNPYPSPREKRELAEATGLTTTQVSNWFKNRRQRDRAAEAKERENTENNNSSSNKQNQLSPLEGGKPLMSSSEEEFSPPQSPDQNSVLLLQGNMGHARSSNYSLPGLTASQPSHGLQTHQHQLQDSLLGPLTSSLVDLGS
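AlphaScreen with GST-Six1 and His-Eya2 (5X mix: 250 nM and 500 nM), glutathione donor and nickel acceptor beads; buffer 50 mM Tris pH 8.0, 300 mM NaCl, 1 mM TCEP; 1 h at 37 C in the dark.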
* marks the source's active call; other numbers are inactive results; ? = inconclusive; · = not tested or not shown; & = joins results of further samples; [ ] = another dose, or the depositor's remark.

SMILES	TRPML1 agonist	D2 PAM	D2 agonist	PINK1 modulator	TRPML1 blocker	Six1-Eya2 blk
CCn1nccc1C(=O)Nc1ccc(Cl)cc1Cl	4.6	-5	1.5	-1.4%[38.3 µM]	-4	1
CN1CCc2c(sc3c2C(=O)NC(c2ccc(OC(=O)c4ccc(C(C)(C)C)cc4)cc2)N3)C1 (configuration not stated)	?	·	·	0.4%	-5	·
Cc1ccc(S(=O)(=O)NCCC(=O)Nc2nnc(C)s2)cc1	-0.7	-1	-3.2	0.0%	-6	6
CCn1c(SCC(N)=O)nnc1-c1ccc2c(c1)OCO2	-0.4	-1	0.3	-0.2%	8	1
CCNC(=S)N1CCN(c2ccc([N+](=O)[O-])cc2)CC1	-0.7	-11	-1.7	-2.2%	-2	-12
CC(=O)OCC1=C(C(=O)O)N2C(=O)C(NC(=O)Cn3nc(C(F)F)c(Cl)c3C)C2SC1 (configuration not stated)	-0.5	0	-1.0	2.1%	-1	-6
O=C(CN1C(=O)COc2ccc(S(=O)(=O)N3CCCC3)cc21)Nc1cccc(F)c1	0.7	-7	-0.7	2.6%	1	0
CCOC(=O)c1cnc2c(OC)cccc2c1N1CCN(c2ccccc2F)CC1	-0.1	·	·	3.2%	-16	·
Cc1c(Cl)cccc1Nc1nc(N)nc(CSc2ncccn2)n1	0.5	-5	7.6	15%[38.3 µM]	-4	0
COC(=O)c1c(C)[nH]c(C(=O)C(C)OC(=O)c2cc(C)oc2C)c1C (configuration not stated)	1.3	-27	3.8	1.7%	1	-8
Cc1cccc(C(=O)NCC(=O)OC(C)C(=O)Nc2ccc(Cl)cn2)c1 (configuration not stated)	2.6	-19	-1.1	0.9%	1	3
Cc1cc[n+](CC(=O)c2cccc([N+](=O)[O-])c2)c2ccccc12	·	-43	-5.3	-0.6%	·	4
CCOC(=O)C1CCN(C(=O)c2ccc3c(=O)n4nc(Nc5ccccc5)sc4nc3c2)CC1	3.0&-0.6	-5	-2.2	-0.6%&1.1%	3&-5	-9
CCn1c(CSc2n[nH]c(N)n2)nc2cc(C(=O)O)ccc21	0.4	-3	-4.6	0.8%	-11	-4
COC(=O)c1ccc(COc2ccc(/C=N/Nc3nc(C)cc(=O)[nH]3)cc2)cc1	0.6	5	-3.3	1.9%	-11	13
CCOC(=O)c1nn(-c2ccc(C)cc2)cc1C(=O)c1ccccc1	2.8	-14	-1.1	·	66	19
COC(=O)c1[nH]c(C)c(/C(O)=C2\C(=O)C(=O)N(CCN(C)C)C2c2cc(OC)ccc2OC)c1C (configuration not stated)	-0.7	-6	-2.2	1.9%	1	-5
CCOC(=O)c1ccc(N2CC3=C(C2=O)C(c2ccc(OC)cc2)NC(=O)N3C)cc1 (configuration not stated)	0.2	·	·	0.9%	3	·
CC(C)C(OC(=O)C1=Cc2ccccc2OC1)C(=O)NC1CCCC1 (configuration not stated)	-1.1	-1	-0.4	0.1%	-21	2
Cn1c(=O)oc2cc(S(=O)(=O)CCC(=O)N3CCN(c4ccccc4F)CC3)ccc21	-0.7&-0.6	-7	4.2	-0.3%&0.4%	6&-7	15
C=CCSC1=C(C#N)C(c2ccc(C(C)C)cc2)CC(=O)N1 (configuration not stated)	-0.7	-6	3.0	5.6%	1	4
COc1ccc(Cn2c(CCC(=O)Nc3ccc(Br)c(C)c3)nc3cccnc32)cc1	2.8	·	·	2.6%	21	·
O=C(O)C1Cc2ccccc2CN1S(=O)(=O)c1ccc(Cl)cc1 (configuration not stated)	0.4	-10	0.0	-0.9%	17	5
CCOc1cc2[nH]c(=O)n(CCCCC(=O)NC3CCCCCC3)c(=O)c2cc1OCC	0.5	-1	1.5	1.4%	1	-2

Part of the list above in order of length of the SMILES, ascending.
SMILES	TRPML1 agonist	D2 PAM	D2 agonist	PINK1 modulator	TRPML1 blocker	Six1-Eya2 blk
O=C(O)C1Cc2ccccc2CN1S(=O)(=O)c1ccc(Cl)cc1 (configuration not stated)	0.4	-10	0.0	-0.9%	17	5
COc1ccc(Cn2c(CCC(=O)Nc3ccc(Br)c(C)c3)nc3cccnc32)cc1	2.8	·	·	2.6%	21	·
CCOC(=O)C1CCN(C(=O)c2ccc3c(=O)n4nc(Nc5ccccc5)sc4nc3c2)CC1	3.0&-0.6	-5	-2.2	-0.6%&1.1%	3&-5	-9

Next entries
SMILES	TRPML1 agonist	D2 PAM	D2 agonist	PINK1 modulator	TRPML1 blocker	Six1-Eya2 blk
Cc1cc(Cl)ccc1OCC(=O)Nc1ccccc1CO	-0.2	11	-0.5	-0.1%	3	12
CN(C)C(=O)c1cccc(-c2cc(NC=O)c3ncc(-c4ccc(F)cc4)n3c2)c1	0.4	0	4.7	-0.5%	·	?
CCOc1c2ccc(C(=O)NCc3ccc(OC(F)(F)F)cc3)cc2nn1C	0.3	-4	-1.8	0.0%	14	1
COc1ccc(O)c(CN2CCN(CCCc3ccccc3)C(CCO)C2)c1 (configuration not stated)	-0.3	-2	-1.4	1.3%	-14	-11
CCOC(=O)C1CCN(c2c(Nc3ccc(C)c(C)c3)c(=O)c2=O)CC1	0.4	-25	-4.8	0.4%	-9	-2
Cc1cccn2c(=O)c3cc(C(=O)NC4CCCCC4)c(=N)n(Cc4ccccc4)c3nc12	-0.5	-3	-2.3	?	-7	10
CC(C)COc1ccc(C(=O)NCC2(N3CCN(C)CC3)CCCCC2)cc1	0.0	·	·	6.8%	-12	·
CCCCOCCCNC(=O)COc1ccccc1	-0.3	-6	-0.4	-4.0%[38.3 µM]	15	5
CCOC(=O)N1CCC(N2C(=O)c3ccc(C(=O)Nc4ccc(OC)c(OC)c4)cc3C2=O)CC1	-0.4	-2	1.5	9.7%	-13	9
O=C(N/N=C/c1ccc2c(c1)OCO2)c1cccnc1	-0.6	-2	-2.9	1.2%	-25	2
CCCCCCn1c(CN2CCCCC2)nc2c1c(=O)n(C)c(=O)n2C	0.3	-9	-2.8	?	18	-1
CCN(CC)C(=O)Cn1c(=O)n(Cc2ccc(F)cc2)c(=O)c2sccc21	0.7	-4	-2.0	1.4%	-6	2
COc1cc(OC)cc(C(=O)Nc2ccc(N3CCN(C(=O)c4cccs4)CC3)cc2)c1	0.1	-4	0.0	?	1	-21
CC(C)CC(=O)Nc1cccc(-c2nc3ncccc3o2)c1	3.8	-8	-5.4	1.0%	-2	-2
Cc1ccc(-c2noc(C3CCCN(C(=O)c4cccc(F)c4)C3)n2)cc1 (configuration not stated)	·	0	2.2	0.6%	·	-3
C=CCn1c(SCC(=O)c2c(N)n(C)c(=O)n(C)c2=O)nnc1-c1ccoc1C	0.1	-10	-3.0	-0.1%	6	-9
O=C(O)CC12CC3CC(C1)CC(n1ncc(NCc4ccc(F)cc4)c(Cl)c1=O)(C3)C2	-0.1	-12	-5.0	0.0%	-11	-2
C=CCN1C=C(C(C)=O)C(=O)CC1	2.7	3	-2.9	-1.2%	-18	4
CCOc1cc(/C=N/NC(=O)C(=O)NCc2ccc3c(c2)OCO3)ccc1OCC(=O)N1CCOCC1	-0.2	1	0.2	-1.2%	9	3
CC(C)C(NS(=O)(=O)c1cccc2nsnc12)C(=O)NC1CCCCC1 (configuration not stated)	-0.6	-5	3.3	0.9%	-6	8
COCc1cc(C)nc2sc3c(=O)n(-c4cccc5ccccc45)nnc3c12	4.1	-18	1.2	1.9%	12	2
Cc1ccccc1NC(=O)c1ccc(OCc2c(C)noc2C)cc1	-0.5	12	-0.6	7.8%	5	0
COc1cc2[nH]c3c(N4CCN(c5ccc(Cl)cc5)CC4)ncnc3c2cc1OC	0.9	-5	-1.3	?	23	-28
CC1Sc2ccc(S(=O)(=O)N(C)Cc3ccccc3)cc2NC1=O (configuration not stated)	-0.7	4	7.7	1.0%	-1	-3
Cc1cc(=O)oc2c3c(cc(OCC(=O)N[C@@H](C)C(=O)O)c12)OC(C)(C)CC3	1.6	-9	1.8	-1.7%	-16	-21
CCOc1ccc(NS(=O)(=O)c2ccc(N)cc2)cc1	-0.3	-3	-1.0	0.2%	1	4
CCc1ccccc1NC(=O)c1nnn(CC(=O)Nc2c(C)cc(C)cc2C)c1N	-0.6	·	·	10%	-4	·
C=CCN1CCC(=O)C(C(=O)OCC)=C1C(=O)OCC	0.7	-3	0.3	0.1%	-16	6
CC(=O)N1CCN(C(=O)C2(NC(=O)Nc3ccc(C)cc3)CCCCC2)CC1	-0.2	-2	-0.4	1.9%	-2	1
CN(c1ccccc1)S(=O)(=O)c1ccc(C(=O)Nc2nnc(C3CC3)o2)cc1	0.5	-3	-4.1	1.1%	15	7
Cc1ccc(C(=O)NC2CCN(CC(=O)Nc3c(C)cc(C)cc3C)CC2)cc1	-0.6	-7	-0.1	-0.8%	4	1
CCn1c(=O)n(CC)c2cc(N3CCCC3)c(NC(=O)c3cccc(OC)c3)cc21	2.7	-9	-6.3	3.9%	12	-5
Cn1c2ccccc2c(=O)c2c(=O)n(-c3ccccc3)c(-c3ccc(C(C)(C)C)cc3)nc21	0.6	-4	-5.4	9.6%	-3	-2
CCOC(=O)CSc1nc2ccc(C)cc2[nH]1	-0.6	1	0.3	-0.2%	-1	3
CC(CN1C(C)CCCC1C)OC(=O)c1ccccc1F (configuration not stated)	0.3	-14	0.9	-1.4%	14	0
CCOC(=O)c1cc(C(C)(C)C)nc(SC)c1C#N	-0.6	-16	-6.3	16%	68	28
Cc1ccc(NC(=O)CSc2nc3ccccc3nc2N2CCOCC2)cc1	1.0&1.8	-3	-4.2	-0.1%&0.8%	-11&4	3
CCOc1ccc(NC(=O)CN2CCN(CC(=O)Nc3ccc(C(N)=O)cc3)CC2)cc1	-0.5	-2	-0.4	-1.3%	-20	3
COc1ccc(-c2sc3ccccc3c2C#CC2(O)CCCCC2)cc1	-0.9	-19	-1.6	25%	5	1
CCCCCOC(=O)c1[nH]c2c(c1C)C(=O)CC(c1ccco1)C2 (configuration not stated)	1.6	-1	-1.6	4.9%	-4	-2
CC1(C)c2ccccc2C(=O)c2ccccc21	2.6	-2	-3.2	3.8%	29	2
COc1cc(NS(=O)(=O)c2ccc(NC(=O)c3cccs3)cc2)nc(OC)n1	0.3	-3	-2.5	0.6%	30	-27
O=C(Nc1c2c(nn1-c1ccccc1)CS(=O)C2)c1ccco1 (configuration not stated)	1.6	-8	-1.9	0.7%	16	4
Cc1ccc(C(=O)OCC(=O)NNC(=O)c2ccc([N+](=O)[O-])cc2)o1	-0.9	8	1.9	2.3%	-2	-4
CC(C)C[C@@]12C(=O)N(c3ccc(Br)cc3)C(=O)N1[C@H](c1ccc(Br)cc1)[C@@H]1C(=O)N(C(C)(C)C)C(=O)[C@@H]12	1.6	2	2.7	-0.6%	23	8
COc1ccc(/C=C/C(=O)c2ccccn2)cc1	2.4	1	7.4	2.0%	-23	1

Of the compounds above, 2 have a cyano group:
SMILES	TRPML1 agonist	D2 PAM	D2 agonist	PINK1 modulator	TRPML1 blocker	Six1-Eya2 blk
C=CCSC1=C(C#N)C(c2ccc(C(C)C)cc2)CC(=O)N1 (configuration not stated)	-0.7	-6	3.0	5.6%	1	4
CCOC(=O)c1cc(C(C)(C)C)nc(SC)c1C#N	-0.6	-16	-6.3	16%	68	28
